T. gondii HeLa: Toxoplasma gondii ME49Luc growth in HeLa cells, luciferase, no IFN-y, primary screen (AID 1259421); T. gondii ME49Luc in HeLa, luciferase, 72 h, no IFN-y; active compounds read low; reference of the scale and settings of repeat entries not given here; many of its hits are not listed in these tables; activity change, negative = inhibition, %; hit rate 9.6% among 6,400;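 active means activity change below -70%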;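 further: about 20 µM from a 10 mM stock diluted 500-fold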
Starred values were filed as active, the others as inactive; & = joins results of further samples; ! = a repeat was not active. This is a subset; the hit share may differ from the screen's.

SMILES | T. gondii HeLa
COC(=O)C1=C(C)NC(C)=C([N+](=O)[O-])[C@@H]1c1ccccc1C(F)(F)F | 1
Cc1nn(-c2ccccc2)c(C)c1/C=N/N1CCN(Cc2ccccc2)CC1 | 1&8
CCCCCCCCCCCC[N+](C)(C)CCOc1ccccc1 | 14
Cc1ccc2c(c1)C(=O)[C@]1(O)CCN(c3ccccc3)C1=N2 | 8
COC(=O)CCc1ccc(OCC(O)CNC(C)C)cc1 (configuration not stated) | 3
CCOC(=O)Nc1cc(-c2ccc(C)c(NS(C)(=O)=O)c2)nn2c(C)nnc12 | 20
C[C@@H](NCCc1ccc(O)cc1)[C@@H](O)c1ccc(O)cc1 | 24
COC(=O)c1c(-c2cc(OC)c(OC)c(OC)c2)c2ccnc(OCc3ncccn3)c2c(=O)n1Cc1ccnc(C)c1 | 5&1
COCCOC(=O)C1=C(C)NC(C)=C(C(=O)OC(C)C)C1c1cccc([N+](=O)[O-])c1 (configuration not stated) | 2&1
c1ncc(CC2CCNCC2)[nH]1 | 13&9
O=C1[C@@H]2[C@H]3CC[C@H](C3)[C@@H]2C(=O)N1CCCCN1CCN(c2ncccn2)CC1 | 8
O=c1cc[nH]c(=S)[nH]1 | 5
c1ccc2c(c1)CCCc1cc(NCCN3CCOCC3)nnc1-2 | 12
CN(C)CC[C@@H](c1ccc(Cl)cc1)c1ccccn1 | 11
C1CCc2nnnn2CC1 | 16&8
CC(=O)OC[C@H]1O[C@@](COC(C)=O)(O[C@H]2O[C@H](COC(C)=O)[C@@H](OC(C)=O)[C@H](OC(C)=O)[C@H]2OC(C)=O)[C@@H](OC(C)=O)[C@@H]1OC(C)=O | 5
CO/N=C(/C(=O)NC1C(=O)N2C(C(=O)OC(C)OC(C)=O)=C(COC(N)=O)CSC12)c1ccco1 (configuration not stated) | 4
O=S(=O)(O)c1ccc(-c2c3nc(c(-c4ccc(S(=O)(=O)O)cc4)c4ccc([nH]4)c(-c4ccc(S(=O)(=O)O)cc4)c4nc(c(-c5ccc(S(=O)(=O)O)cc5)c5ccc2[nH]5)C=C4)C=C3)cc1 | 0
Cc1cccc(C)c1NC(=O)C(C)N (configuration not stated) | 7
COc1ccc(C[C@H](NC(=O)[C@H](C)NC(=O)CN2CCOCC2)C(=O)N[C@@H](Cc2ccccc2)C(=O)[C@]2(C)CO2)cc1 | -76*
[2H]C([2H])([2H])C(O)(CCO[C@@H](C)[C@H]1CC[C@H]2/C(=C/C=C3/C[C@@H](O)C[C@H](O)C3=C)CCC[C@]12C)C([2H])([2H])[2H] | 1
COc1ccc2[nH]c(-c3ccccc3)c(CCNC(C)=O)c2c1 | 3&15
CC(C)n1cnc2c(NCc3ccccc3O)nc(NCCCO)nc21 | 1
COc1cc(/C=C/C(=O)O)cc(OC)c1O | -2
N[C@@H]1c2cccnc2[C@H](OC(=O)N2CCC(n3c(=O)[nH]c4ncccc43)CC2)CC[C@H]1c1cccc(F)c1F | -2
CNCc1cc(-c2ccccc2F)n(S(=O)(=O)c2cccnc2)c1 | 13
[O-][NH2+]c1ccc(O)c2ncccc12 | -85*
CCC(CC)CC1(C(=O)Nc2ccccc2SC(=O)C(C)C)CCCCC1 | -69
COc1cc(/C=C/c2ccc(OC)cc2OC)cc(OC)c1 | -58&-59
CC(C)n1cnc2c(NCc3ccccc3)nc(NCCCO)nc21 | 0
CNCCCCOc1ccccc1Cc1ccccc1 | 22&18
O=S(=O)(O)c1cc(I)c(O)c2ncccc12 | 16&9
CC1O[C@@H](Oc2c(-c3ccc(O)c(O)c3)oc3cc(O)cc(O)c3c2=O)[C@H](O)[C@H](O)[C@H]1O (some centres not stated) | 6
COC1C(O)C(CO)OC1n1cnc2c(NC3CCCCC3)ncnc21 (configuration not stated) | 11
Nc1nc(N)c([NH2+][O-])c(OCC2CCCCC2)n1 | 6
COC(=O)C[C@](O)(CCCC(C)(C)O)C(=O)O[C@@H]1C(OC)=C[C@]23CCCN2CCc2cc4c(cc2[C@H]13)OCO4 | -86*
COc1cc2c(cc1OC)C(=O)OC2 | 0
Cc1c(O)c(=O)ccn1C | 11
CCN(C(=O)c1c(O)c2c(Cl)cccc2n(C)c1=O)c1ccccc1 | 4
CSCC[C@H](NC(=O)[C@@H](N)Cc1c[nH]c2ccccc12)C(=O)N[C@@H](CC(=O)O)C(=O)N[C@@H](Cc1ccccc1)C(N)=O | 17

Two neighbouring records already listed, for reference:
SMILES | T. gondii HeLa
CCN(C(=O)c1c(O)c2c(Cl)cccc2n(C)c1=O)c1ccccc1 | 4
CSCC[C@H](NC(=O)[C@@H](N)Cc1c[nH]c2ccccc12)C(=O)N[C@@H](CC(=O)O)C(=O)N[C@@H](Cc1ccccc1)C(N)=O | 17

Next section
SMILES | T. gondii HeLa
CCC(CC)O[C@@H]1C=C(C(=O)O)C[C@H](N)[C@H]1NC(C)=O | 4
CC1CCC(NC(=O)N(CCCl)[NH2+][O-])CC1 (configuration not stated) | 75
OC(c1cc(C(F)(F)F)nc2c(C(F)(F)F)cccc12)C1CCCCN1 (configuration not stated) | -88&9
CC(C)(N)C(=O)N[C@H](COCc1ccccc1)C(=O)N1CCC2(CC1)CN(S(C)(=O)=O)c1ccccc12 | 5
COc1cc(C)c(C(=O)Oc2cc(C)c(C(=O)O)c(O)c2C)c(OC)c1C | 0
CC(=O)OCC[N+](C)(C)C | 6
CC(=O)O[C@H]1CC[C@@]2(C)C(C[C@@H](OC(C)=O)[C@@]3(C)C4=CC(=O)O[C@@H](c5ccoc5)[C@]4(C)CCC23)C1(C)C (some centres not stated) | 15
CC1(C)C(=O)NC2=C1C(=O)C(=O)c1ccccc12 | -90*
COc1ccccc1N1CCN(CCN(C(=O)C2CCCCC2)c2ccccn2)CC1 | 15
CCCCC/C=C\C/C=C\C/C=C\CCCCCCC(=O)O | 5
CC12CCC(C(=O)N(CCCCN3CCN(c4ccccn4)CC3)C1=O)C2(C)C (configuration not stated) | -4
Clc1cccc2c1CN(C1=NCCN1)C2 | 7&5
NS(=O)(=O)c1ccc(C(=O)O)cc1 | 17
NC1(C(=O)N[C@@H](CCO)c2ccc(Cl)cc2)CCN(c2ncnc3[nH]ccc23)CC1 | 9
CC(=O)[C@@]12OC(C)(c3ccccc3)O[C@@H]1C[C@H]1[C@@H]3CCC4=CC(=O)CC[C@]4(C)[C@H]3CC[C@@]12C (some centres not stated) | -53
CCCCCN(C)CCC(O)(P(=O)(O)O)P(=O)(O)O | 5
CC(C)(O)[C@H]1CC[C@@](C)([C@H]2[C@@H](O)C[C@@]3(C)[C@@H]4C[C@H](O[C@@H]5O[C@H](CO)[C@@H](O)[C@H](O)[C@H]5O)[C@H]5C(C)(C)[C@@H](O[C@@H]6OC[C@@H](O)[C@H](O)[C@H]6O)CC[C@@]56C[C@@]46CC[C@]23C)O1 | 3
Cc1ccc(O)c([C@H](CCN(C(C)C)C(C)C)c2ccccc2)c1 | 20
NCCCCCC(O)(P(=O)(O)O)P(=O)(O)O | 13
COc1cc(-c2coc3cc(O[C@@H]4O[C@H](CO)[C@@H](O)[C@H](O)[C@H]4O)c(OC)c(O)c3c2=O)cc(O)c1OC | 40
O=Cc1ccc(CO)o1 | 4
CC(=O)N1CCC[C@H]1C(=O)N[C@@H](Cc1cnc[nH]1)C(=O)N[C@@H](CO)C(=O)N[C@@H](CS)C(=O)N[C@@H](CC(N)=O)C(N)=O | 12
COc1nc(C)cnc1NS(=O)(=O)c1cccnc1-c1ccc(-c2nnco2)cc1 | 11
CC(C)(CO)C(O)C(=O)NCCC(=O)NCCSSCCNC(=O)CCNC(=O)C(O)C(C)(C)CO (configuration not stated) | 1
CCC(C)(C)C(=O)O | 9
COc1cc2c(cc1C(F)(F)F)N(C(=O)Nc1cc(F)cc(-c3cccnc3)c1)CC2 | -17
OCC1OC(n2cnc3c(NC4CCCC4)nc(Cl)nc32)C(O)C1O (configuration not stated) | -6
Nc1ccc(S(=O)(=O)NC(=O)c2ccccc2)cc1 | -6&6
OCc1ccccc1O | -8
CC(C)ON([C@@H](C(=O)NO)C(C)C)S(=O)(=O)c1ccc(-c2ccccc2)cc1 | -87*
COc1ccc2[nH]c(S(=O)Cc3ncc(C)c(OC)c3C)nc2n1 (configuration not stated) | 28&29
Clc1ccc(COC(Cn2ccnc2)c2ccc(Cl)cc2Cl)c(Cl)c1 (configuration not stated) | -92*
CSC[C@H](N)C(=O)O | 7
CC(C)C[C@H](NC(=O)[C@H](CCc1ccccc1)NC(=O)CN1CCOCC1)C(=O)N[C@@H](Cc1ccccc1)C(=O)N[C@@H](CC(C)C)C(=O)[C@@]1(C)CO1 | -77*
O=C(NCc1ccccc1)c1csc(Nc2ccncn2)n1 | -57
COc1ccc2c(c1OC)C(=O)OC2[C@H]1c2c(cc3c(c2OC)OCO3)CCN1C (some centres not stated) | 10
CCCCCCCC/C=C/CCCCCCCC(=O)NC(CO)Cc1ccc(O)cc1 (configuration not stated) | 6
C#C[C@]1(O)CC[C@H]2[C@@H]3CCc4cc(O)ccc4[C@H]3CC[C@@]21C | -81*
CC(C)[C@](O)(c1ccc2cc(OC(F)F)c(OC(F)F)cc2c1)c1cn[nH]n1 | 30
CN1CCN(c2ccc3nc(-c4ccc5nc(-c6ccc(O)cc6)[nH]c5c4)[nH]c3c2)CC1 | -23

Reformatted: entries from further up
SMILES	T. gondii HeLa
CC(C)C[C@H](NC(=O)[C@H](CCc1ccccc1)NC(=O)CN1CCOCC1)C(=O)N[C@@H](Cc1ccccc1)C(=O)N[C@@H](CC(C)C)C(=O)[C@@]1(C)CO1	-77*
O=C(NCc1ccccc1)c1csc(Nc2ccncn2)n1	-57
COc1ccc2c(c1OC)C(=O)OC2[C@H]1c2c(cc3c(c2OC)OCO3)CCN1C (some centres not stated)	10
CCCCCCCC/C=C/CCCCCCCC(=O)NC(CO)Cc1ccc(O)cc1 (configuration not stated)	6
C#C[C@]1(O)CC[C@H]2[C@@H]3CCc4cc(O)ccc4[C@H]3CC[C@@]21C	-81*
CC(C)[C@](O)(c1ccc2cc(OC(F)F)c(OC(F)F)cc2c1)c1cn[nH]n1	30

New compounds follow:
SMILES | T. gondii HeLa
O=C(O)c1cc(=O)c2c(Cl)cc(Cl)cc2[nH]1 | 8&5
O=S(=O)(O)CCS | 4
N=[N+]=CC(=O)CC[C@H](N)C(=O)O | 0
O=C(NNc1ccccc1)c1ccncc1 | 23
COc1cc(C(=O)NC2CCCNC2)cc(OC)c1OC (configuration not stated) | 26
C[C@@H]1O[C@@H](OC[C@H]2OC(Oc3c(-c4ccc(O)c(O)c4)oc4cc(O)cc(O)c4c3=O)[C@H](O)[C@@H](O)[C@@H]2O)[C@H](O)[C@H](O)[C@H]1O (some centres not stated) | 0
CCCCCN=c1ccn(Cc2ccccc2)c2ccccc12 | -3
Nc1c[n+](N2CCOCC2)no1 | 19
O=C(COc1ccc(C(=O)c2ccccc2)cc1)NC1CCN(Cc2ccccc2)CC1 | -18
CS(=O)(=O)Oc1ccc2c(NC(N)=O)c(C(=O)c3ccc(Cl)cc3Cl)oc2c1 | -82*!
CCOC(=O)Nc1ccc2c(c1)N(C(=O)CN(C)C)c1ccccc1CC2 | 0
CC(C)(C)c1ccc(C(=O)CCCN2CCC(OC(c3ccccc3)c3ccccc3)CC2)cc1 | -87*
O=C(O)CCc1cc(C(=O)c2ccc(OC3CCCC3)cc2O)ccc1OCc1ccc2c(=O)[nH]oc2c1 | 6
COc1ccc(S(=O)(=O)N(C(C)=O)c2ccccc2/C=C/c2cc[n+]([O-])cc2)cc1 | -47
OCC1OC(n2cnc3c(NC4CCCC4)ncnc32)C(O)C1O (configuration not stated) | 2
O=C(O)[C@H]1CN(CCCP(=O)(O)O)CCN1 | 5
OC[C@H]1O[C@H](O[C@]2(CCl)O[C@H](CCl)[C@@H](O)[C@@H]2O)[C@H](O)[C@@H](O)[C@H]1Cl | 6
CSCC[C@H](NC(=O)[C@H](Cc1c[nH]c2ccccc12)NC(=O)CCNC(=O)OC(C)(C)C)C(=O)N[C@@H](CC(=O)O)C(=O)N[C@@H](Cc1ccccc1)C(N)=O | 16&11
O=S(=O)(c1cccc2cnccc12)N1CCNCC1 | 3&19
Cc1cc(NC(=O)Nc2ccc(N(C)C)cc2)c2cc(F)cc(F)c2n1 | 31

A different layout for four compounds above:
COc1ccc(S(=O)(=O)N(C(C)=O)c2ccccc2/C=C/c2cc[n+]([O-])cc2)cc1
- T. gondii HeLa: -47
OCC1OC(n2cnc3c(NC4CCCC4)ncnc32)C(O)C1O (configuration not stated)
- T. gondii HeLa: 2
O=C(O)[C@H]1CN(CCCP(=O)(O)O)CCN1
- T. gondii HeLa: 5
OC[C@H]1O[C@H](O[C@]2(CCl)O[C@H](CCl)[C@@H](O)[C@@H]2O)[C@H](O)[C@@H](O)[C@H]1Cl
- T. gondii HeLa: 6

(further entries)
SMILES | T. gondii HeLa
CC(C)C(=O)OC[C@@]1(N=[N+]=[N-])O[C@@H](n2ccc(N)nc2=O)[C@H](OC(=O)C(C)C)[C@@H]1OC(=O)C(C)C | 7
CC(C)c1noc(N2CCC(COc3ccc(-c4ccc(S(C)(=O)=O)cc4)nc3)CC2)n1 | -10
COc1ccc2c(c1)c1c3n2CCN(C)C3=NCC1 | 15
CC(=O)NS(=O)(=O)c1ccc(NC(=O)c2ccccc2C(=O)O)cc1 | 1
COc1cc(/C=C/C(N)=O)cc(OC)c1OC | 15
O=C(O)c1ccc(N2C(=O)/C(=C/c3ccc(-c4ccc([N+](=O)[O-])cc4)o3)C=C2c2ccccc2)cc1 | 15
O=C1C[C@@H](c2ccc(O)cc2)Oc2cc(O)ccc21 | 19
O=C(NCc1cccc(O)c1)Nc1nc(-c2ccncc2)cs1 | -71*
CC1CC(OC(=O)c2ccccc2O)CC(C)(C)C1 (configuration not stated) | 12&22
CC(C)CCOC(=O)c1ccc(N(C)C)cc1 | 68
NCCc1cnc[nH]1 | 11
COc1ccc(-c2cc(=O)c3c(O)cc(O)cc3o2)cc1O | 105&124
Nc1cccc2c1C(=O)N(C1CCC(=O)NC1=O)C2=O (configuration not stated) | 11
S=c1ccss1 | 1
C[N+](C)(C)[C@@H](Cc1c[nH]c(=S)[nH]1)C(=O)O | 3

High-throughput results: PubChem, Broad Institute
